High-throughput results deposited in PubChem by several laboratories.
UCH37 inh – inhibitors of human UCH37 deubiquitinase, primary screen, biochemical, Ub-AMC cleavage, fluorescence; purified proteasome/UCH37; inhibition, % (test concentration not listed); 330,000 tested, 0.33% active; AID 588478, 2011;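 active means mean of two replicates above 20%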;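 further: 0% = compound-free wells with enzyme and 100% = wells lacking proteasome; stock transfer was 100 nL into about 20 µL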
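Test system – human UCH37 enzyme supplied as purified proteasome complex · Incubation – 30 min preincubation with enzyme, 25 min cleavage at room temperature · Detection – AMC fluorescence from Ub-AMC cleavage, excitation 355 nm, emission 460 nm · Benchmarks – no-proteasome wells (full inhibition) and compound-free wells (no inhibition)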
Beta2AR agonist – beta2AR agonists driving receptor internalization, primary screen, cell-based, FAP fluorogen, flow cytometry; Beta-2 adrenergic receptor (Homo sapiens), P07550; Am2.2-beta2AR cells; reference of the scale not given here; response, % (test concentration not listed); 340,000 tested, 0.43% active;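 active means response above a set limit, near 3 SD of response in nonfluorescent compounds, cut at about 42% in these data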;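 further: stock transfer was 100 nL into about 11 µL; a reference agonist was the positive control; negative values mostly stem from fluorescent compounds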
Target sequence (P07550 whole entry, looked up): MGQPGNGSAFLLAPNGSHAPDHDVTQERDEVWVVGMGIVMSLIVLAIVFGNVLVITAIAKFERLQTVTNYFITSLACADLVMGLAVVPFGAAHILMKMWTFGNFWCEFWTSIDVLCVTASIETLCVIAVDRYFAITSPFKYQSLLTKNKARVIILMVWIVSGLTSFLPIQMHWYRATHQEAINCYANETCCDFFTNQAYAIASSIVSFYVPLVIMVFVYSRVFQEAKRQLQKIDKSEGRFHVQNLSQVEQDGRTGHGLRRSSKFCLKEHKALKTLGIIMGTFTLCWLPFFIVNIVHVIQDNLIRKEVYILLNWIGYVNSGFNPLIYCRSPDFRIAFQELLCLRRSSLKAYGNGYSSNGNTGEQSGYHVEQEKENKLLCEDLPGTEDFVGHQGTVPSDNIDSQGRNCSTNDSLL
ALR inh – inhibitors of human ALR sulfhydryl oxidase, primary screen, biochemical, H2O2 detection, HRP-luminol luminescence, single point. FAD-linked sulfhydryl oxidase ALR (Homo sapiens), P55789. purified ALR, DTT oxidation. inhibition, % (concentration not given with the values). 290,000 tested, 3.8% active;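 active means mean and each replicate at 75% or more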;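 further: stock transfer was 7.5 nL into about 7.5 µL; 0% = neutral wells and 100% = wells with inactivated enzyme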
FGF22 binding – binders of human FGF22 protein, primary screen, FGF22 synaptogenesis inhibitor project, biophysical, thermal shift, single point. Fibroblast growth factor 22 (Homo sapiens), Q9HCT0. recombinant FGF22 thermal shift, SYPRO orange fluorescence; percent of sucrose octasulfate shift, DMSO zero. calls only at 9.99 µM. 340,000 tested, 1.5% active;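 active means melting point raised past a set limit in the mean and every replicate; three in four hits are not shown here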
Target sequence (Q9HCT0 whole entry, looked up): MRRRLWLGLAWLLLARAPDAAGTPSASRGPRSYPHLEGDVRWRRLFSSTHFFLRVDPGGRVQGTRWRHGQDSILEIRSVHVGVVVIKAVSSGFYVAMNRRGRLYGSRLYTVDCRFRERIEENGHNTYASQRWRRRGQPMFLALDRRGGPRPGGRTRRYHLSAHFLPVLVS
HNF4A DNA FP – change in binding of human HNF4A to DNA, primary screen, biochemical, fluorescence polarization, FITC-DNA; Hepatocyte nuclear factor 4-alpha (Homo sapiens), P41235; 1 h; activity change, % at 10 µM; 360,000 tested, 0.3% active; in the data active means activity change above about 30%, passing the limit was not always enough;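 further: controls were the assay level and a saturating level of protein; the project sought stronger binding though the title names inhibitors; some compounds called inactive have numbers as strong as hits; positive values seem to mean higher polarization but the record does not say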
Target sequence (P41235 whole entry, looked up): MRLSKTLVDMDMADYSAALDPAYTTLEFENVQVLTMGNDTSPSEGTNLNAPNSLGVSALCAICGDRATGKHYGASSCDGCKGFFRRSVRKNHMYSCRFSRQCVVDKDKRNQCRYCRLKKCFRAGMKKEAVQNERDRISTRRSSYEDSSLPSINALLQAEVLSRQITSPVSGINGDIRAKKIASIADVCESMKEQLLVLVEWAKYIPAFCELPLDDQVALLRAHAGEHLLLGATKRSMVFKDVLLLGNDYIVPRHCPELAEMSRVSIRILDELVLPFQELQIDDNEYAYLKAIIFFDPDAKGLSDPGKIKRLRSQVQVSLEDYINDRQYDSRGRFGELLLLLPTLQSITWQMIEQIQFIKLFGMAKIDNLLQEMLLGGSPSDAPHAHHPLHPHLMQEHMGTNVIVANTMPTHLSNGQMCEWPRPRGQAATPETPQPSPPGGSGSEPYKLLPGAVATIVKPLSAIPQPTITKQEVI
Ecoli growth – E. coli growth inhibition, primary screen, OD600; AID 1053175, 2014; OD600 absorbance (test concentration not listed); Escherichia coli growth, 23 h; hits give low values; 330,000 tested, 0.21% active;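 active means OD600 absorbance below the run mean of sample wells minus 3.6 SD, in any replicate, cut at about 0.56 in these data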;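 further: stock transfer was 300 nL into about 60 µL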
LANA-H2A inh – blockers of LANA interaction with H2A/H2B – biochemical, FP readout, HTS, primary screen; cell-free LANA-H2A/H2B peptide, fluorescence polarization; Protein LANA1 (Human herpesvirus 8 type P (isolate GK18)), Q9QR71; inhibition, % (test concentration not listed); 320,000 tested, 0.6% active; in the data active means inhibition mostly above about 10%, no sharp cut-off; inactive means mostly below about 6.7%;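 further: stock transfer was 7.5 nL into about 10 µL; 0% = median of vehicle wells and 100% = median of positive control wells; one replicate is shown; the record names a cut of 25% in any replicate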
* hit, by the source's call; i = inactive; / = no result given; + = active, no number. These rows are one share of the data. The share of hits here may be higher or lower than overall.

| canonical_smiles | UCH37 inh | Beta2AR agonist | ALR inh | FGF22 binding | HNF4A DNA FP | Ecoli growth | LANA-H2A inh |
| --- | --- | --- | --- | --- | --- | --- | --- |
| O=C1NC(=O)c2cc3ccccc3cc21 | -221 | -7 | -3 | i | 4.2 | 0.68 | -0.6 |
| COC(=O)[C@H](Cc1ccccc1)NCCCn1cnc(C(=O)Nc2ccc(C)c(C)c2)n1 | / | 7 | / | i | -3.4 | / | / |
| CC(C)Oc1ccc(C2NC(=O)NC2=O)cc1 (stereo unspecified) | -0.2 | 3 | -12 | / | -0.3 | 0.69 | -0.6 |
| CCC(=O)Nc1cccc(-c2nc3ccccc3o2)c1 | 1.4 | 2 | 1 | / | 2.8 | 0.7 | -2.4 |
| CC(C)CC(C)NC(=O)c1ccc(C(F)(F)F)cc1 (stereo unspecified) | 3.7 | -12 | -2 | i | 3.2 | 0.68 | -10 |
| CCCNC(=O)C1CN(C(=O)c2nn(Cc3ccccc3)c(=O)c3ccccc23)c2ccccc2O1 (stereo unspecified) | -2.3 | -9 | -19 | i | -2.1 | 0.7 | 4.3 |
| CCN(CC)S(=O)(=O)c1ccc(N2CCOCC2)c(NC(=O)Cc2ccc(Cl)cc2)c1 | 2.3 | -13 | -6 | / | 0.3 | 0.7 | -6.6 |
| O=P(c1ccccc1)(c1ccccc1)c1nc(-c2ccccc2)oc1NCc1ccccc1 | -17 | -2 | / | i | 5.3 | 0.73 | -4.9 |
| NC1=CC(=O)C(=O)c2ccccc21 | 44* | 15 | / | i | -3.4 | 0.65 | / |
| S=C1SCN(CCN2CCOCC2)CN1Cc1ccccc1 | 2.7 | -5 | -1 | / | -3.0 | 0.6 | -1.8 |
| CCn1c(C)c(C2=CCN(S(=O)(=O)c3ccccc3)CC2)c2ccccc21 | 2.0 | 2 | / | / | 2.5 | 0.76 | 0.8 |
| CCOC(=O)C1(CC2CC2)CCN(C(=O)c2cc(C3CC3)nc3ccccc23)CC1 | -1.2 | 2 | -28 | i | -7.1 | 0.68 | 0.9 |
| Cc1ncc([N+](=O)[O-])n1CC(=O)N/N=C/c1ccccc1F | / | 2 | -20 | i | -5.0 | / | 0.3 |
| CCCC(=O)OCC(=O)Nc1ccc(N=Nc2ccccc2)cc1 | 8.7 | 3 | 57 | / | -1.9 | 0.61 | -4.1 |
| COc1cc(/C=C/C(=O)Nc2cccc(S(=O)(=O)N3CCOCC3)c2)ccc1OCC#N | -3.4 | 16 | -2 | + | 0.5 | 0.69 | 2.7 |
| CC(C)COc1ccc(C(=O)N(CC(=O)Nc2ccccc2C(F)(F)F)Cc2ccco2)cc1 | 2.7 | -6 | 7 | i | 1.2 | 0.67 | -0.5 |
| O=C(Cc1ccsc1)Nc1ccc(S(=O)(=O)C(F)F)cc1 | 2.1 | -11 | / | i | -1.5 | 0.66 | 4.1 |
| Cc1ccc(-c2nnc(SCC#CCOC(=O)c3ccco3)o2)cc1 | 2.6 | -3 | 5 | / | -1.7 | 0.7 | -1.5 |
| CN(C)c1ccc(/C=C(/NC(=O)c2ccccc2Cl)C(=O)NCCN2CCOCC2)cc1 | 4.7 | -4 | 88* | i | 4.7 | 0.7 | -1.2 |
| Cc1cc(C(=O)NCC(=O)Nc2c(C)cccc2C)c(C)o1 | 2.0 | -3 | -1 | i | -4.8 | 0.68 | 167* |
| O=C(OC1CCOC1=O)c1cccc(S(=O)(=O)Nc2ccc(F)cc2)c1 (stereo unspecified) | 2.5 | -9 | -3 | i | -2.3 | 0.66 | -2.5 |
| CN1CCN(c2ccc(NC(=O)CSc3nnnn3-c3ccccc3F)cc2)CC1 | 2.8 | -6 | -1 | i | 1.7 | 0.65 | 2.2 |
| O=C1OC(Nc2ccc(Br)cc2F)c2ccccc21 (stereo unspecified) | 1.9 | 2 | -6 | / | -0.2 | 0.7 | 3.1 |
| Cc1ccc(S(=O)(=O)N2CCCCC2)cc1NC(=O)CNC(C)c1ccc(Cl)c(Cl)c1 (stereo unspecified) | 5.6 | -2 | / | i | 1.1 | 0.74 | 1.6 |
| CCOC(=O)c1cc(C(=O)Nc2ccc(S(=O)(=O)Nc3ccc(OC)cc3)cc2)nn1C | / | -8 | -27 | i | 2.7 | / | 3.7 |
| CC(Oc1ccccc1Cl)C(=O)N1CCCN(C)CC1 (stereo unspecified) | / | 5 | 2 | i | 5.2 | / | 0.6 |
| Cc1ccc(N2CC(NC(=O)C(=O)c3c(C)[nH]c4ccccc34)CC2=O)cc1 (stereo unspecified) | 8.2 | -6 | -7 | i | -2.5 | 0.71 | -2.9 |
| CSc1nccn1C(=O)c1ccccc1[N+](=O)[O-] | -3.3 | 0 | -21 | i | 1.8 | 0.67 | 1.0 |
| N#CCCn1cc(/C=N/N=C2\NC(=O)C(CC(=O)O)S2)c(-c2ccc(F)cc2)n1 (stereo unspecified) | / | -1 | -30 | i | -0.9 | / | -2.5 |
| Cc1nn(-c2cc(C(F)(F)F)ccn2)c(=O)o1 | 0.6 | 2 | -11 | i | 3.9 | 0.62 | -4.6 |
| CSCCC(NS(=O)(=O)c1ccc(C)cc1)C(=O)N1CCCCCCC1 (stereo unspecified) | 0.5 | -4 | -4 | i | -3.3 | 0.68 | 3.4 |
| CC1CCCCC1NC(=O)C1CCC(CNS(=O)(=O)c2ccc(F)cc2)CC1 (stereo unspecified) | 2.9 | 0 | / | i | 2.2 | 0.7 | 1.1 |
| CCCCNC(=S)NNC(=O)C12CC3CC(CC(C3)C1)C2 | 0.4 | 4 | 17 | / | -1.1 | 0.77 | 1.3 |
| C/C(=N\NC(=O)c1cc(-c2ccc(C)s2)[nH]n1)c1ccncc1 | / | -3 | 0 | i | -2.4 | / | 3.1 |
| O=C(C1=C[C@@H](c2ccccc2)C[C@@H](OCCCCO)O1)N1CCN(Cc2ccc3c(c2)OCO3)CC1 | -2.0 | -5 | -2 | i | -1.7 | / | -3.1 |
| Cc1ccc(S(=O)(=O)NC(=O)Nn2c(C)nnc2C)cc1 | 3.1 | -4 | 1 | / | 5.5 | 0.76 | -0.2 |
| NS(=O)(=O)c1ccc2nc(NC(=O)C3=COCCO3)sc2c1 | -4.5 | 4 | 0 | i | -1.1 | 0.64 | -0.6 |
| Cc1onc(-c2c(F)cccc2Cl)c1-c1nnc(-c2ccc(C(F)(F)F)cc2)o1 | 1.6 | -2 | -1 | i | -1.6 | 0.67 | 1.5 |
| O=C(C[n+]1ccc(C(=O)c2ccccc2)cc1)Nc1ccccc1OC(F)F | 4.4 | -13 | -3 | i | -0.9 | 0.7 | 2.8 |
| COc1ccc(N2CCN(Cc3nc4c(c(=O)[nH]c(=O)n4C)n3Cc3cccc(Cl)c3)CC2)cc1 | 5.5 | 1 | -2 | i | -3.2 | 0.7 | 3.4 |

Single records, from the list above. Order of values: UCH37 inh | Beta2AR agonist | ALR inh | FGF22 binding | HNF4A DNA FP | Ecoli growth | LANA-H2A inh
Cc1onc(-c2c(F)cccc2Cl)c1-c1nnc(-c2ccc(C(F)(F)F)cc2)o1 in the list: 1.6 | -2 | -1 | i | -1.6 | 0.67 | 1.5
Cc1nn(-c2cc(C(F)(F)F)ccn2)c(=O)o1 in the list: 0.6 | 2 | -11 | i | 3.9 | 0.62 | -4.6
Cc1ccc(S(=O)(=O)NC(=O)Nn2c(C)nnc2C)cc1 in the list: 3.1 | -4 | 1 | / | 5.5 | 0.76 | -0.2

Continued.
| canonical_smiles | UCH37 inh | Beta2AR agonist | ALR inh | FGF22 binding | HNF4A DNA FP | Ecoli growth | LANA-H2A inh |
| --- | --- | --- | --- | --- | --- | --- | --- |
| CCC1CCCCN1CCNC(=O)C1CCN(S(=O)(=O)c2c(C)noc2C)CC1 (stereo unspecified) | 1.0 | 10 | -1 | / | 1.1 | 0.69 | 3.6 |
| O=C(NC1CCCc2ccccc21)C1CCN(S(=O)(=O)c2ccccc2)CC1 (stereo unspecified) | 4.6 | 7 | -39 | / | -1.3 | 0.69 | 1.2 |
| O=C(Nc1nccs1)c1cc(-c2ccccc2)nc2ccccc12 | 4.0 | -5 | -2 | i | -0.8 | 0.68 | 0.6 |
| Nc1ccc(O)cc1C(=O)OCC(=O)c1ccc(C2CCCCC2)cc1 | -20 | 4 | 4 | / | -1.0 | 0.67 | -482 |
| Cc1cc(C(=O)COC(=O)c2n[nH]c(=O)c3ccccc23)c(C)n1C(C)C | 1.2 | 3 | 3 | i | 0.8 | 0.68 | -0.2 |
| CS(=O)(=O)N(CC(=O)N1CCCC1)c1cccc(Cl)c1Cl | 1.7 | 14 | 4 | i | -1.9 | 0.69 | 4.3 |
| Nc1c(C(=O)c2ccccc2)sc2nsc(SCCN3CCCC3)c12 | 9.5 | -234 | 31 | / | 38* | 0.62 | -2.0 |
| CCOc1ccc(C(C(=O)NCC2CCCO2)N(C(=O)c2snc(C(N)=O)c2N)c2ccc(F)cc2)cc1 (stereo unspecified) | / | 4 | / | i | -2.1 | / | -2.6 |
| O=C(CSc1nc2cc(Cl)ccc2s1)NCc1ccc2c(c1)OCO2 | 3.2 | -3 | -7 | / | 2.0 | 0.71 | 8.0 |
| Cc1c(C(=O)N2CCN(CCc3ccccc3)CC2)oc2ccccc12 | 3.8 | 4 | -8 | / | 0.8 | 0.68 | 5.5 |
| Cc1cc(C)c(/C=C(\C#N)S(=O)(=O)c2ccccc2)[nH]1 | 0.1 | 20 | / | i | 2.4 | 0.68 | 2.6 |
| CCc1cccc(C)c1NC(=O)COC(=O)Cc1ccsc1 | 2.4 | 6 | -13 | / | 18 | 0.7 | -5.5 |
| CN(Cc1cccs1)C(=O)CSc1nc2ccccc2[nH]1 | 0.0 | -11 | -4 | i | -0.1 | 0.66 | 1.7 |
| CC(C)(C)Nc1ncnc2sc(-c3ccccc3)cc12 | -34 | 17 | -4 | i | 3.9 | 0.64 | 0.5 |
| C/C(=N\NC(=S)Nc1cc(S(=O)(=O)N2CCOCC2)ccc1Cl)c1ccccc1F | / | 11 | 4 | i | -0.6 | / | -2.7 |
| O=[N+]([O-])c1cc(CN2CCCC2)c2cccnc2c1O | / | 1 | -25 | / | -38 | / | 0.0 |
| Cc1ccnn1CC(=O)N/N=C/c1ccco1 | / | 1 | -7 | / | -3.2 | / | -2.6 |
| Cc1ccc(-c2csc3ncnc(Nc4ccc(N5CCOCC5)cc4)c23)cc1 | -0.8 | 13 | -1 | / | 1.1 | 0.7 | 1.7 |
| CCOC(=O)c1sc(Nc2nc(C)cc(OC)n2)nc1C | 2.8 | -5 | 3 | i | 0.4 | 0.7 | 2.4 |
| Cc1ccc(C)c(S(=O)(=O)Nc2ccc(C(=O)NCCCN3CCOCC3)cc2)c1 | -1.3 | 5 | -6 | / | -0.7 | 0.67 | 2.3 |
| O=C(CNC(=O)C12CC3CC(CC(C3)C1)C2)OCC(=O)N1CCCCC1 | 3.0 | 11 | -3 | i | -3.4 | 0.68 | 0.3 |
| Cc1[nH]ccc(=O)c1Cc1c(Cl)cccc1Cl | 4.0 | -9 | -7 | i | -1.2 | 0.65 | -8.3 |
| CCN1/C(=C/C=C/c2oc3ccc4ccccc4c3[n+]2CC)Oc2ccc3ccccc3c21 | 2.0 | / | -19 | / | / | 0.69 | -35 |
